High-throughput results: PubChem BioAssay, National Center for Advancing Translational Sciences (NCATS)
CtBP-E1A blk: inhibitors of CtBP/E1A interaction; AlphaScreen GST-E1A/His-CtBP binding, 1536-well; stronger effect = lower value; control for the full effect not named in the record; activity change, % (concentration not given with the values); actives 0.49% (n = 340,000); AID 651724; in the data active means activity change below about -65%; inconclusive means about -30% to -65%; inactive means above about -30%; also: % is scaled to controls: 0 for no effect and ±100 for the full control effect
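In 5 uL wells, 23 nL compound meets equimolar GST-E1A and His-CtBP (5X stock 125 nM each) for 2 h, 37 °C. Beads (5X, 50 ug/mL) then 1 h, 37 °C, dark.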
TRPML1 blocker: human mucolipin-1 channel inhibition | Q9GZU1 | AID 624415 | TRPML1-inducible cells, Ca2+ dye fluorescence, FDSS; stronger effect = lower value; inhibition of EC80 agonist-evoked calcium signal | actives 0.02% (n = 390,000) | activity change, negative = inhibition, % (no concentration beside the values); in the data active means activity change below about -50%; inconclusive means about -30% to -50%; inactive means above about -30%;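 also: stimulus is agonist 54-4 at its EC80 concentration; % is scaled to controls: 0 for no effect and ±100 for the full control effect; compound concentration not given in the record; the text of the record puts the active cut at -80%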
Target sequence (Q9GZU1 whole entry, looked up): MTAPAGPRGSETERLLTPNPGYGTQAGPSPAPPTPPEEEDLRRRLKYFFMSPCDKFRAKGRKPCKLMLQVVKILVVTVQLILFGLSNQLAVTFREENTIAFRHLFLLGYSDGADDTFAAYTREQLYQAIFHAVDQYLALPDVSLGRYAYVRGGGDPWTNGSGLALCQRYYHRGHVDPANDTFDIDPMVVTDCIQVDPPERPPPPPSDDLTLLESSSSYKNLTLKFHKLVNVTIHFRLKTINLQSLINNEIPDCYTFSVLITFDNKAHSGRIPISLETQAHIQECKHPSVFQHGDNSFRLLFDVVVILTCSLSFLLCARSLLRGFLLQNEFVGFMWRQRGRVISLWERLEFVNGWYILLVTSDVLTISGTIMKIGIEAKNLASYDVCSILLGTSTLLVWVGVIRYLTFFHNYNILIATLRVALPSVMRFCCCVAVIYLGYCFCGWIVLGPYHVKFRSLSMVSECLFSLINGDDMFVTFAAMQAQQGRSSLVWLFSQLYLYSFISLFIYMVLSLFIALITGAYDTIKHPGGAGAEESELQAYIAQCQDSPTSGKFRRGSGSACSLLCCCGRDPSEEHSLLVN
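Calcium fluorescence in TRPML1-DL cells induced overnight with Tet: a 110 s read after compound pin addition, then a 110 s antagonist read after challenge with 54-4 at 4 uM final (EC80).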
Six1-Eya2 blk: Six1/Eya2 interaction inhibition | AlphaScreen GST-Six1/His-Eya2 binding, biochemical; stronger effect = lower value; control for the full effect not named in the record | Q15475+O00167 | activity change, % (test concentration not listed) | actives 0.56% (n = 360,000); in the data active = activity change below about -65%; inconclusive = about -30% to -65%; inactive = above about -30%; also: % is scaled to controls: 0 for no effect and ±100 for the full control effect; compound concentration not given in the record
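Six1/Eya2 binding was read as AlphaScreen signal after compounds were pinned into GST-Six1 plus His-tagged Eya2 (5X stock 250/500 nM) in pH 8.0 Tris/NaCl/TCEP buffer, beads added, then incubated 1 h, 37 C, dark.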
TRPML1 agonist: human mucolipin-1 channel agonism; Q9GZU1; TRPML1-expressing cells, Ca2+ dye fluorescence, FDSS; host cell line not named in the record; reference of the full effect not given here; activation, % (test concentration not listed); actives 0.12% (n = 410,000); AID 624414; in the data active = activation above about 50%; inconclusive = about 30% to 50%; inactive = below about 30%; also: 0% is about no effect; the text of the record puts the active cut at 80%
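TRPML1-DL cells, Tet-induced overnight (~16 h, 37 degrees C), loaded 45-90 min at room temperature with Ca8 no-wash calcium dye plus quencher. FDSS fluorescence: 10 s baseline, compound pin-transfer, 110 s agonist read, then EC80 54-4 (4uM final) and 110 s antagonist read.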
D2 potentiator: positive allosteric modulators of human D2 dopamine receptor | potentiation, % (test concentration not listed) | DiscoveRx D2 beta-arrestin cells, luminescence, 90 min; 100% = 57 uM dopamine signal | actives 0.23% (n = 360,000) | P14416; active = potentiation of 50% or more; inconclusive = 30% to 50%; inactive = 30% or less;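 also: compound concentration not given in the record; tested on top of an EC20 dose of dopamine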
Target sequence (P14416 whole entry, looked up): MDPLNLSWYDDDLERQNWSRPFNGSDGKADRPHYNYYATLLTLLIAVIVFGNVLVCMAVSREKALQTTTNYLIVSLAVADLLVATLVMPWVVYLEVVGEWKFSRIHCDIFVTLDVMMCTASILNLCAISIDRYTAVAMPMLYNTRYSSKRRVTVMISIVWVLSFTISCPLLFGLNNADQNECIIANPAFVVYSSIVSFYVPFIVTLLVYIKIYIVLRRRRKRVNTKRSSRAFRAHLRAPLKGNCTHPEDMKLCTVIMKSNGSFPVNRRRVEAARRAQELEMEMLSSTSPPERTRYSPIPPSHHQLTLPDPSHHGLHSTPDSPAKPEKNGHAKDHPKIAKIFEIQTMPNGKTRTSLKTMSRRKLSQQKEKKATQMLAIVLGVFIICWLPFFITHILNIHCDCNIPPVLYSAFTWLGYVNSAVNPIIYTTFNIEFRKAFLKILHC
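D2 cells co-treated with compound plus 50 nM dopamine (EC20) for 90 min at 37 deg C to detect potentiation. Beta-arrestin recruitment was read as enzyme-fragment luminescence after 1 h at ambient temperature. Full response was set by 57 uM dopamine.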
TRPV1 PAM: human TRPV1 potentiation | TRPV1-expressing cells, Fluo-8 calcium influx, capsaicin EC20 potentiation; host cell line not named in the record; control for the full effect not named in the record | AID 540277 | potentiation, % at 8.33 µM | actives 0.02% (n = 320,000) | Q8NER1; active means potentiation above 80%; inconclusive means 30% to 80%; inactive means below 30%; also: 0% is about no effect
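Cells expressing TRPV1 were dye-loaded with Fluo-8 and read kinetically: 10 s baseline, 3 min after compound (agonist portion), then 2 min after EC20 capsaicin (allosteric enhancer portion). Calcium-bound dye fluorescence at 480/520 nm.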
An asterisk follows results filed as active; u = inconclusive; x = no result given; & = joins results of further samples.

SMILES	CtBP-E1A blk	TRPML1 blocker	Six1-Eya2 blk	TRPML1 agonist	D2 potentiator	TRPV1 PAM
O=C(NCc1ccc2c(c1)OCO2)c1ccc(Cl)nc1	-14.9	2.3	3.0	-0.4	-5.7	-9.9
Cc1ccc(OCC(=O)O/N=C(\N)c2ccncc2)c(C)c1	13.9	-12.0	3.4	0.1	-0.8	14.4
CC(Sc1nc2ccc(Br)cc2[nH]1)C(=O)O (stereo not drawn)	-0.7	43.3	-1.5	2.7	-1.0	5.3
CCN(CC)S(=O)(=O)c1ccc(N2CCOCC2)c(NC(=O)c2cc(-c3ccccn3)nc3ccccc23)c1	-0.8	-9.2	1.5	-1.0	-13.8	-6.1
COc1ccc(C(=O)NNC(=O)c2cc(C)nc3ccccc23)cc1	2.0	-7.8	-1.1	-0.4	0.4	-4.9
O=C(O)c1ccccc1NCc1cccs1	x	-2.1	-1.4	-0.8	8.3	-8.2
CCOC(=O)C1CCCN(C(=O)C2CCC(CNS(=O)(=O)c3ccc(NC(C)=O)cc3)CC2)C1 (stereo not drawn)	-0.6	11.2	-0.7	-0.1	-6.7	-6.0
O=C(NCc1ccco1)c1ccc2c(=O)n(CCC3=CCCCC3)c(=O)[nH]c2c1	-1.4	6.4	0.3	0.2	1.1	9.1
Cn1ccc2c(-c3ccc(C(C)(C)C)cc3)cc3c(c21)C1CCC3C1 (stereo not drawn)	1.1	x	-18.3	-0.6	-3.9	x
CC1=CC(C)(C)n2c(O)c(N=N)c3c(C)c(C)cc1c32	-27.6	-11.3	-22.1	-1.1	-8.2	7.6
CCOc1ccc(S(=O)(=O)N2CCN(CN3C(=O)CC4(CCCC4)C3=O)CC2)cc1	-6.5	-14.4	0.4	-0.6	-0.9	14.1
Cc1ccc(-n2c(N)c(C(N)=O)sc2=S)cc1	2.0	24.6	-0.5	-0.3	-3.6	6.8
CCC(=O)Nc1ccc(C(=O)Nc2cccnc2)cc1	1.1	-11.9	-2.2	0.5	-5.6	4.1
CCN1CCCC1CN(Cc1cc2cc(OC)ccc2[nH]c1=O)C(=O)NCc1ccccc1 (stereo not drawn)	3.2	-7.3	5.4	0.0	-16.5	3.1
CN(CC(=O)Nc1ccc(Cl)cc1)C(=O)CCNC(=O)c1ccc(Cl)cc1	x	19.6	1.3	-0.1	-6.5	9.7
CCc1ccc(CN(C)C(=O)c2cc(COc3ccc(OC)cc3Cl)on2)nc1	4.7	9.2	-3.2	1.0	7.5	-14.1
Cc1ccccc1NC(=O)CSc1nc2ccccc2c(=O)n1C	-5.5	-7.6	5.0	-1.1	-3.8	5.2
COc1ccc(-n2nnnc2SCC(=O)N2CCCC2)cc1OC	0.0	-0.9	-3.7	0.6	-1.4	-3.3
O=C(O/N=C1\CCS(=O)(=O)c2sccc21)c1ccccc1	-7.9	4.2	6.1	1.6	8.3	-17.2
CCCCC(=O)Nc1nnc(C2=COCCO2)o1	5.9	-6.9	-0.8	0.3	2.6	1.0
O=C(CN1CCCCCCC1)N/N=C/c1ccc([N+](=O)[O-])o1	u	-1.2	-20.4	-0.1	-2.8	10.0
CCOc1ccc(/C=N/NC(=O)Cc2ccccc2)cc1CN1CC2CC(C1)c1cccc(=O)n1C2 (stereo not drawn)	-10.5	1.1	1.5	0.6	0.7	-4.3
CCc1ccc(-c2nc(CN3CCCC(C(=O)NCCc4ccc(OC)c(OC)c4)C3)c(C)o2)cc1 (stereo not drawn)	3.0	27.4	-1.8	-1.0	-10.6	8.6
Cc1nc(SCc2cccc(C(=O)O)c2)nc2c1CCCC2	x	-0.8	-3.7	1.7	-3.7	-3.2
CCOC(=O)N1CCN(C(=O)Cn2c(C)cc3ccccc3c2=O)CC1	x	-14.4	4.5	-0.3	1.3	-34.5
O=C(O)c1cc(-c2cccs2)[nH]n1	-0.2	-6.2	2.9	-0.1	1.9	-0.4
Cc1nc(C(F)(F)F)nc(Nc2ccc(Br)cc2)c1C#N	15.4	-1.3	5.6	-0.3	-0.2	-23.6
COc1ccc(C(=O)/C=C/Nc2c(C)n(C)n(-c3ccccc3)c2=O)c(OC)c1	9.3	13.0	-3.5	0.9	-17.8	-4.1
CCOc1ccc(NC(=O)CSc2cn[nH]n2)cc1	1.0	15.2	1.7	1.9	-19.4	-20.6
COc1cc(-c2noc(C)c2C(=O)NCCO)cc(OC)c1OC	2.9	-8.1	30.2	-1.1&-0.9	-11.8	18.5
Cc1ccccc1Nc1ccc([N+](=O)[O-])cn1	-14.1	-4.7	5.6	0.8	-3.5	-2.2
Cc1ccc(S(=O)(=O)N2CCN(S(=O)(=O)N3CCCCC3)CC2)cc1C	-10.3	3.3	10.6	-0.4	-1.6	-4.3
COCCNC(=O)C(=O)c1c(-c2ccccc2)[nH]c2ccccc12	3.6	13.7	6.0	1.1	-4.5	9.1
COC(=O)c1ccc(C23CC4(C2)[C@H](CN(Cc2ccc(-c5ccccc5)cc2)[C@@H]4c2ccccc2)C3c2ccc(Cl)nc2)cc1 (stereo partly drawn)	0.0	-11.8	-5.3	0.1	-3.6	25.2
O=C(NCCSCc1ccc(Cl)cc1Cl)c1ccc(CN2CCOCC2)cc1	-3.4	17.9	-10.0	1.5	-11.1	-10.0
CCCC(=O)NC(c1ccc(OC)cc1)c1ccc2cccnc2c1O (stereo not drawn)	-88.3*	-18.9	-89.7*	0.0	6.2	-1.9

An excerpt from further up, as a working copy:
SMILES	CtBP-E1A blk	TRPML1 blocker	Six1-Eya2 blk	TRPML1 agonist	D2 potentiator	TRPV1 PAM
COc1ccc(-n2nnnc2SCC(=O)N2CCCC2)cc1OC	0.0	-0.9	-3.7	0.6	-1.4	-3.3
O=C(O/N=C1\CCS(=O)(=O)c2sccc21)c1ccccc1	-7.9	4.2	6.1	1.6	8.3	-17.2
CCCCC(=O)Nc1nnc(C2=COCCO2)o1	5.9	-6.9	-0.8	0.3	2.6	1.0

Continued.
SMILES	CtBP-E1A blk	TRPML1 blocker	Six1-Eya2 blk	TRPML1 agonist	D2 potentiator	TRPV1 PAM
Cc1ccc(NS(=O)(=O)c2cccc(C(=O)N3CCOCC3)c2)cc1	6.2	-0.8	-1.0	0.3	-19.6	-6.8
O=C(NCc1nc2ccccc2[nH]1)C1=C[C@@H](C2CCCCC2)C[C@@H](OCCCCO)O1	0.8	20.1	-0.8	-0.5	-1.8	17.9
COc1cccc(NC(=O)C2CCCN(S(C)(=O)=O)C2)c1 (stereo not drawn)	7.7	-3.9	-4.1	-0.3	-8.5	5.9
Cc1nc2ccccn2c1C(=O)N/N=C/c1ccccc1	-15.8	-1.2	-13.2	1.6	-5.1	0.8
O=C(O)c1ccccc1N1C(=O)C2C3c4ccccc4C(Br)(c4ccccc43)C2C1=O (stereo not drawn)	x	-1.5	8.5	0.8	-27.4	-11.5
CCCCCc1c(C)nc(Nc2ccccc2)[nH]c1=O	-1.4	15.7	-11.9	1.0	2.6	-17.5
CC(C)c1ccccc1NC(=O)c1ccco1	9.3	-12.0	2.3	-0.5	3.3	9.9
O=C1CCC(C(=O)Nc2ccccc2N2CCCC2)=NN1	-4.2	3.4	-6.6	0.0	2.2	4.3
O=S(=O)(Nc1cccc(-c2cn3c(n2)SCC3)c1)c1ccccc1F	-4.3	-13.3	-9.6	-0.4	-24.6	3.0
Cc1oc(-c2ccccc2F)nc1CS(=O)(=O)CC(=O)NCc1ccccc1Cl	2.3	9.4	-4.8	0.3	-0.4	3.6
O=C1C2C3C=CC(C2C(=O)N1CCCO)C1C2C(=O)N(CCCO)C(=O)C2C31 (stereo not drawn)	-1.8	1.8	0.1	-0.6	-10.0	18.6
COCCn1c(C)cc(C2=NNC(=NC3CC3)SC2)c1C	1.4	-12.8	-9.2	-1.3	-21.0	2.9
CCOc1ccc(-c2nc(CSc3nnc(N)s3)cs2)cc1	-3.8	-15.7	7.7	-0.6	0.2	8.9
COC(=O)CN1C(=O)C(C)(C)Oc2ccc(C(=O)Nc3ccccc3F)cc21	-0.3	12.3	-14.0	0.8	-2.6	-16.4
Cc1ccc(NC(=O)/C(C#N)=C/c2cccs2)c(C)c1	-1.1	4.1	-3.0	-0.8	-3.4	-11.8
O=[N+]([O-])c1ccc(N2CCN(CCO)CC2)c2ncccc12	0.1	15.8	2.7	-0.6	-17.3	7.1
O=S(=O)(CCN1CCN(c2ccccc2O)CC1)c1ccc(Cl)cc1	0.5	-14.2	1.2	-0.8	-13.2	x
COc1cccc(COC(=O)C2CC(=O)N(Cc3ccccc3)C2)c1OC (stereo not drawn)	3.8	-9.6	-0.5	-1.3	-3.6	x
O/N=C(/CCc1ccccc1)C1(O)CCCCC1	10.4	-8.6	4.3	-0.2	-2.0	13.0
Cc1sc2ncnc(N3CCN(S(=O)(=O)c4ccc(C(C)(C)C)cc4)CC3)c2c1C	-16.2	-12.2	-9.7	2.7	-0.7	x
COc1ccccc1CNc1ncnc2c1cnn2-c1ccccc1	-24.4	19.7	6.6	1.6	-7.7	15.0
O=C(CCl)N(Cc1cccc([N+](=O)[O-])c1)c1cccc(Cl)c1	2.4	3.2	6.8	-0.3	-2.2	-2.3
CCOC(=O)C1=C(N)c2ccccc2CC1C1CCCC1 (stereo not drawn)	x	7.8	3.5	-0.7	2.5	-22.3
CC(=O)N1CC(C)Sc2ccc(S(=O)(=O)NCc3ccc(F)cc3)cc21 (stereo not drawn)	x	-5.5	5.8	0.9	-9.0	u

Sorted by length of the SMILES (lowest first): some entries from above
SMILES	CtBP-E1A blk	TRPML1 blocker	Six1-Eya2 blk	TRPML1 agonist	D2 potentiator	TRPV1 PAM
O/N=C(/CCc1ccccc1)C1(O)CCCCC1	10.4	-8.6	4.3	-0.2	-2.0	13.0
Cc1ccc(NC(=O)/C(C#N)=C/c2cccs2)c(C)c1	-1.1	4.1	-3.0	-0.8	-3.4	-11.8
O=S(=O)(CCN1CCN(c2ccccc2O)CC1)c1ccc(Cl)cc1	0.5	-14.2	1.2	-0.8	-13.2	x
O=C(CCl)N(Cc1cccc([N+](=O)[O-])c1)c1cccc(Cl)c1	2.4	3.2	6.8	-0.3	-2.2	-2.3
COC(=O)CN1C(=O)C(C)(C)Oc2ccc(C(=O)Nc3ccccc3F)cc21	-0.3	12.3	-14.0	0.8	-2.6	-16.4
Cc1sc2ncnc(N3CCN(S(=O)(=O)c4ccc(C(C)(C)C)cc4)CC3)c2c1C	-16.2	-12.2	-9.7	2.7	-0.7	x

Rows were taken by chance (roughly 0.95% active in at least one column).
